Screens as filed in PubChem BioAssay.
Lassa entry inh = qHTS for Inhibitors of binding or entry into cells for Lassa Virus; Lassa virus pseudotype entry inhibition, cell reporter; control for the full effect not named in the record; Potency, µM (titrated, usually from 37.9 µM), for the others: at the highest dose activity change, negative = inhibition, most hits filed as inhibitors; 300,000 compounds, 1.2% hits; AID 540256, 2011; active means well fitted inhibition curve with a large enough effect; inconclusive means small, poorly fitted or top-dose-only effect, or effect the other way; inactive means flat fitted curve, though single readings scatter; tested in HEK293 cells; note: % is set by controls: 0 for no effect and ±100 for the full control effect; nearly all actives have a fitted effect of over 50% in size; luciferase read-out
Cruzain Triton = qHTS Assay for Promiscuous and Specific Inhibitors of Cruzain (with detergent). Cruzipain (Trypanosoma cruzi), P25779. purified cruzain, Z-FR-AMC fluorescence, 0.01% Triton. Potency, µM, for the others: max response, negative = inhibition, most hits filed as inhibitors. 200,000 compounds, 0.43% hits; active = well fitted curve in the direction sought with a large enough effect; inconclusive = small, poorly fitted or top-dose-only effect, or another doubt; inactive = no such curve, though single readings can be large; an effect the other way counts as inactive or inconclusive;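 note: plate controls were neutral wells for no effect and buffer without enzyme for full effect; nearly all actives have a fitted effect of over 40% in size; top concentration of the series not given in the record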
Target sequence (P25779 123-467 limits assumed): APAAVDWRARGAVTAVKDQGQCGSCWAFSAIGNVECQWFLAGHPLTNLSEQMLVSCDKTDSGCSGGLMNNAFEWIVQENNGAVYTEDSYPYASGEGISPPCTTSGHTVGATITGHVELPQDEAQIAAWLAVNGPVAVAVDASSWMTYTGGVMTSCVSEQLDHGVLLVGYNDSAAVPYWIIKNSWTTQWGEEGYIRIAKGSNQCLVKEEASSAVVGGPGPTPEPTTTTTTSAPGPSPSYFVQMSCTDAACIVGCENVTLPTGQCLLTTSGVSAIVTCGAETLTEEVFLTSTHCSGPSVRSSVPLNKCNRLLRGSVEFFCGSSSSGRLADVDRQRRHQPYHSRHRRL
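Purified cruzain (1.5 nM final) was preincubated with compounds for 15 min at room temperature in 100 mM sodium acetate pH 5.5, 5 mM DTT, 0.01% Triton X-100. Reaction started with 2 uM Z-FR-AMC; AMC fluorescence change over 60 s gave activity.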
SARS PLpro yeast = qHTS of Yeast-based Assay for SARS-CoV PLP | S. cerevisiae expressing SARS-CoV PLpro, growth rescue; control for the full effect not named in the record | Potency, µM (highest dose often 32.9 µM), for the others: at the highest dose activity, positive = growth rescue | 330,000 compounds, 0.19% hits; note: 0% is about no effect; nearly all actives have a fitted effect of over 55% in size; growth read by luminescence after 48 h
NS1 inh = qHTS Assay for Inhibitors of Influenza NS1 Protein Function. S. cerevisiae slowed by influenza A NS1, growth recovery by OD600. Potency, µM (series often up to 46.1 µM), for the others: at the highest dose activity, positive = more growth. 270,000 compounds, 0.4% hits; note: actives are rising curves; nearly all actives have a fitted effect of over 50% in size
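Growth recovery, yeast-based: influenza A NS1 expressed in S. cerevisiae causes slow growth, and suppressors are detected by OD600. The parent strain without NS1 is used as positive control.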
RE007 growth inh = qHTS Assay for Inhibitors of the HIV-1 protein Vpr | AID 651644, 2012 | Potency, µM (top dose mostly 92.2 µM), for the others: top-dose activity change, negative = less growth | 360,000 compounds, 0.21% hits | S. pombe RE007 Vpr strain, BacTiter-Glo ATP luminescence, 24 h; control for the full effect not named in the record; active = well fitted falling curve with a large enough effect; inconclusive = small, poorly fitted or top-dose-only effect; inactive = no such curve, though single readings can be large or run the other way;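 note: % is set by controls: 0 for no effect and ±100 for the full control effect; nearly all actives have a fitted effect of over 50% in size; the assay follows cell death caused by Vpr and the record does not say whether a fall means rescue or toxicity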
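Fission yeast RE007 carrying one integrated HIV-1 vpr copy, seeded at OD 0.01 in PMG+AL medium with 23 nL pinned compound. Grown 24 h at 30 degrees; viability read by BacTiter-Glo luminescence after 5 min.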
2A StopGo = High Throughput Screening for Foot and Mouth Disease Virus Antivirals; human cells with a luciferase reporter of 2A StopGo recoding; control for the full effect not named in the record; Potency, µM (doses to about 57.9 µM), without a hit: at the top dose signal change, negative = less light; 410,000 compounds, 1.2% hits; AID 1159524, 2015; active = well fitted falling curve with a large enough effect; inconclusive = small, poorly fitted or top-dose-only effect; inactive = no such curve, though single readings can be large or run the other way; tested in HEK293T cells; note: % is set by controls: 0 for no effect and ±100 for the full control effect; nearly all actives have a fitted effect of over 45% in size; luciferase light after 4 h
Cruzain inh noDet = qHTS Assay for Promiscuous and Specific Inhibitors of Cruzain (without detergent) | Cruzipain (Trypanosoma cruzi), P25779 | purified cruzain, Z-FR-AMC fluorescence, no detergent | Potency, µM, for the others: max response, negative = inhibition, hits mostly inhibitors | 200,000 compounds, 2.3% hits | AID 1476, 2009; active = well fitted curve in the direction sought with a large enough effect; inconclusive = small, poorly fitted or top-dose-only effect, or another doubt; inactive = no such curve, though single readings can be large; an effect the other way counts as inactive or inconclusive;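 note: plate controls were enzyme without inhibitor for no effect and buffer without enzyme for full effect; nearly all actives have a fitted effect of over 40% in size; top concentration of the series not given in the record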
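Detergent-free condition (0.00005% Triton X-100) in acetate buffer pH 5.5 with DTT. 1.5 nM enzyme and compound were pre-mixed 15 min, then 2 uM Z-FR-AMC substrate added; reaction progress from fluorescence change between first and third reads (60 s).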
MARV entry inh = qHTS for inhibitors of binding or entry into cells for Marburg Virus; Marburg virus pseudotyped entry inhibition, cell reporter; control for the full effect not named in the record; about a third of the inactives were read at about 46 µM; Potency, µM (top dose mostly 37.8 µM), inactives show at the highest dose activity change, negative = inhibition, most hits filed as inhibitors; 300,000 compounds, 1.8% hits; AID 540276, 2011; active = well fitted inhibition curve with a large enough effect; inconclusive = small, poorly fitted or top-dose-only effect, or effect the other way; inactive = flat fitted curve, though single readings scatter; tested in HEK293 cells; about a fifth of its hits are not listed in these tables; note: % is set by controls: 0 for no effect and ±100 for the full control effect; luciferase read-out
* hit, by the source's call; ? = inconclusive; . = not tested or not shown; & = joins results of further samples; [ ] = another dose, or the depositor's remark. Unless noted, calls come from the whole dose curve; as a rule, active means well fitted rising curve with a large enough effect; inconclusive means small, poorly fitted or top-dose-only effect; inactive means no such curve, though single readings can be large or run the other way. Potency is the fitted concentration of half-maximal effect.

SMILES	Lassa entry inh	Cruzain Triton	SARS PLpro yeast	NS1 inh	RE007 growth inh	2A StopGo	Cruzain inh noDet	MARV entry inh
CN(C(=O)CSc1nnc(-c2ccco2)n1C)C1CCCCC1	?	.	10%	.	-5%	1%	.	?
O=C(c1ccc(Cl)cc1)c1cnc(-c2ccc(Cl)cc2)s1	?	-2.5%	5%	5%	13%	6%	-7%	28%
Cc1cccc(C)c1NC(=O)C1CC(=O)N(C(C)C)C1 (stereo not drawn)	15%	2.5%	4%	1%	23%	-11%	-13%	?
CCCNC(=O)Cc1cc(=O)[nH]c(=O)[nH]1	.	2.9%	12%	20%	4%	-3%	4%	.
CCCN(CCC)[C@@H]1CCc2ccc(O)cc2C1	2%	-4.4%&1.1%	.	-8%	.	-18%	-3%&7%	?
CN1C(=O)N(CC(=O)N2CCN(S(=O)(=O)c3ccc(Cl)s3)CC2)C(=O)C12CCCCC2	4%	.	4%	.	13%	0%	.	?
COc1cc2c(cc1N)-c1ccc(N)cc1C2	-6%	.	.	.	12%	27%	.	30%
O=C(CSc1ccc(-c2cccc([N+](=O)[O-])c2)nn1)N1CCCC1	26%	.	-4%	.	-6%	11%	.	3%[46.1 µM]
CC(=O)c1ccc(NC(=O)COC(=O)/C=C/c2cccs2)cc1	-1%	.	-34%	.	-8%	-12%	.	-1%
CC(C(=O)NCC1CCCCC1)N1CCN(S(=O)(=O)/C=C/c2ccccc2)CC1 (stereo not drawn)	?	-2.8%	6%	-27%	-10%	-9%	?	?
O=C(NC(=S)Nc1ccccc1N1CCCC1)c1cccc(F)c1	.	.	0%	8%	-4%	5%	.	.
CC1(C)Cc2ccccc2C(CSc2ccccc2C(=O)O)=N1	-3%	.	0%	-2%	-11%	1%	.	-26%[46.1 µM]
CC1(C(=O)O)CCC(C(=O)Nc2ccc3ccccc3c2)C1(C)C (stereo not drawn)	6%	-1.6%	12%	3%	3%	19%	-5%	2%
CSCC[C@H](Nc1ncnc2sc(C)c(C)c12)C(=O)O	6%	0.2%	6%	4%	9%	1%	-4%	13%
COc1ccc2sc(N(CCCN(C)C)C(=O)c3ccc(S(=O)(=O)N(C)C4CCCCC4)cc3)nc2c1	?	.	-1%	.	18%	-19%	.	?
OC[C@@H]1O[C@@H](n2cnc3c(NC4CCCC4)ncnc32)[C@H](O)[C@H]1O	.	1.4%	.	.	.	-19%	10%	20%
CCn1cc(C(=O)OCC(=O)c2cc(C)n(-c3cccc(C(F)(F)F)c3)c2C)c(=O)c2ccc(C)nc21	18%	-7.2%	-58%	?	-8%	?	-3%	9%
CCOC(=O)C1CCCN(C(=O)c2ccc(OC)c([N+](=O)[O-])c2)C1 (stereo not drawn)	8%	-1.3%	8%	-7%	-4%	-15%	2%	8%
CC(=O)Nc1c(-c2cc(=O)oc3cc(C)ccc23)oc2ccccc12	.	.	0%	-3%	7%	-16%	.	.
C/C(=N\Nc1ccc([N+](=O)[O-])cc1)c1ccc(N2CCOCC2)cc1	0%	.	0%	-31%	-5%	2%	.	13%[46.1 µM]
Fc1ccccc1-c1nnc2ccc3ccccc3n12	9%[46.1 µM]	.	-6%	-16%	-10%	-17%	.	2%[46.1 µM]
CCN(CC)Cc1nc2sc(C)c(C)c2c(=O)[nH]1	.	.	-7%	0%	4%	-1%	.	.
CCOC(=O)C1CCN(C2=C(NS(=O)(=O)c3ccc(Cl)cc3)C(=O)c3ccccc3C2=O)CC1	-17%[46.1 µM]	.	-3%	5%	-4%	-17%	.	?
NC(=O)c1cnn2c1NC(c1ccc(F)cc1)CC2C(F)(F)F (stereo not drawn)	-1%	5.8%	1%	5%	8%	2%	3%	10%
C#CCNC(=O)C1=C[C@@H](c2coc3ccccc3c2=O)C[C@@H](OCCCCO)O1	.	.	-2%	7%	1%	1%	.	.

Reprinted from the part before: five entries, followed by the next part.
SMILES	Lassa entry inh	Cruzain Triton	SARS PLpro yeast	NS1 inh	RE007 growth inh	2A StopGo	Cruzain inh noDet	MARV entry inh
Fc1ccccc1-c1nnc2ccc3ccccc3n12	9%[46.1 µM]	.	-6%	-16%	-10%	-17%	.	2%[46.1 µM]
CCN(CC)Cc1nc2sc(C)c(C)c2c(=O)[nH]1	.	.	-7%	0%	4%	-1%	.	.
CCOC(=O)C1CCN(C2=C(NS(=O)(=O)c3ccc(Cl)cc3)C(=O)c3ccccc3C2=O)CC1	-17%[46.1 µM]	.	-3%	5%	-4%	-17%	.	?
NC(=O)c1cnn2c1NC(c1ccc(F)cc1)CC2C(F)(F)F (stereo not drawn)	-1%	5.8%	1%	5%	8%	2%	3%	10%
C#CCNC(=O)C1=C[C@@H](c2coc3ccccc3c2=O)C[C@@H](OCCCCO)O1	.	.	-2%	7%	1%	1%	.	.
Cc1nc(Cl)c(Cl)n1CCOc1ccccc1	17%	.	-2%	1%	8%	-5%	.	-4%[14.2 µM]
COc1cccc(CNC(=O)CCS(=O)(=O)c2ccc3c(c2)NC(=O)C(C)S3)c1 (stereo not drawn)	.	.	-6%	-2%	0%	-26%	.	.
COC(=O)c1[nH]c2cccc(OC)c2c1NC(=O)CN1CCN(c2cccc(OC)c2)C(C)C1 (stereo not drawn)	?	-9.0%	-17%	-29%	-1%	-24%	?	?
Brc1cccc(OCCN2CCOCC2)c1	.	.	2%	-2%	0%	17%	.	.
O=C(Cn1cc(C(F)(F)F)ccc1=O)N/N=C/c1ccccc1O	.	.	0%	-4%	-4%	2%	.	.
O=C(Cc1csc(N2CCOCC2)n1)N/N=C/c1cccc(O)c1	8%	1.7%	2%	1%	-1%	-20%	-7%	1%
O=C(NCc1cc([N+](=O)[O-])ccc1O)c1cccnc1Sc1ccccc1	.	.	-1%	-10%	-15%	9%	.	.
CCOc1ccc(NC(=O)c2ccc(NC(=O)COC(=O)Cc3ccccc3)cc2)cc1	2%	-4.1%	23%	-7%	-4%	9%	?	?
CC1CCC2(CC1)NC(=O)N(CC(=O)Nc1ccc3[nH]c(=O)[nH]c3c1)C2=O (stereo not drawn)	4%	.	-8%	.	3%	-9%	.	6%[46.1 µM]
Cc1ccc2c(CNC3CCC(C)CC3)c(C(=O)O)n(Cc3cccc(F)c3)c2c1 (stereo not drawn)	-18%[46.1 µM]	-3.7%	.	.	.	-10%	-6%	.
Cc1ccc2oc(=O)c3cnn(CC(=O)N(CCC(C)C)Cc4ccco4)c3c2c1	.	4.5%	0%	-40%	10%	-14%	-1%	.
CC(=O)Nc1c(N)c2ccccc2oc1=O	24%	.	0%	3%	-7%	-7%	.	24%&24%[46.1 µM]
CCCc1nnc(SCC(=O)N2CCCCC2C)n1CCOC (stereo not drawn)	.	.	7%	4%	22%	-9%	.	.
COc1cc(/C=C2\C(=N)N3N=C(S(C)(=O)=O)SC3=NC2=O)ccc1OC(=O)c1cccs1	.	.	3%	-9%	-7%	-5%	.	.
COCCNC(=O)c1c(N)n(CCC(C)C)c2nc3ccccc3nc12	-1%	-18%	-3%	16%	-5%	-25%	?	?
Cc1ccccc1NC(=O)C1C2CC/C=C\CCC21 (stereo not drawn)	6%	-2.4%	-21%	5%	7%	0%	-18%	-2%
CCCCN(C(=O)Cc1cccs1)c1nnc(-c2cccnc2)s1	72%	-5.8%	3%	-4%	11%	20%	-3%	?
Nc1nonc1-c1nc2ccccc2n1CC(=O)N1CCN(c2ccc(F)cc2)CC1	5%	0.1%	-1%	17%	4%	-17%	-6%	-24%
O=C(Cn1cnc2ccccc21)N/N=C/c1ccco1	3%	-4.5%	?	3%	22%	-3%	3%	16%
COc1ccc(/C(N)=N/OC(=O)Cc2ccc(OC)c(OC)c2)cc1	-17%	-0.5%	-16%	-64%	-4%	.	-2%	?
CCCCn1c(-c2nn(C)c(C)c2Cl)n[nH]c1=S	-3%	2.9%	2%	-15%	-4%	-5%	-2%	8%
O=C1NC(=O)/C(=C/c2ccccc2Cl)N1	22%[46.1 µM]	.	-1%	-2%	4%	-6%	.	-22%[46.1 µM]
CC1CCCCC1NC(=O)C1CCC(CNS(=O)(=O)c2cccc3cccnc23)CC1 (stereo not drawn)	.	.	2%	5%	7%	-14%	.	.
COC(=O)c1ccccc1NC(=O)Cn1c(=O)n(CCC(=O)NCc2ccccc2OC)c(=O)c2ccccc21	19%[46.1 µM]	1.0%	.	.	.	-20%	-6%	30%[46.1 µM]
Cc1csc2c(=O)n(CCO)c(=O)[nH]c12	6%[46.1 µM]	.	1%	-49%	-12%	7%	.	13%[46.1 µM]
Cc1cccc(NC(=O)c2ccc3oc(=O)c(S(=O)(=O)c4ccc(F)cc4)cc3c2)c1C	7%[46.1 µM]	-1.1%	.	.	.	32µM*	23%	14%[46.1 µM]
COc1ccc(CCNC(=O)C(=O)NCC(c2ccc3c(c2)OCO3)N2CCOCC2)cc1 (stereo not drawn)	1%[46.1 µM]	-1.2%	.	.	.	?	-2%	.
O=C(c1cccc(N2CCCC2=O)c1)N1CCN(c2cccc(Cl)c2)CC1	.	.	-5%	-33%	0%	-21%	.	.
CCOc1ccc(S(=O)(=O)c2cn(C)c3ccccc3c2=O)cc1	-17%[46.1 µM]	-2.7%	.	.	.	11%	-8%	-24%[46.1 µM]
CCC(OC(=O)CN1C(=O)c2ccccc2C1=O)C(=O)NC1CCCC1 (stereo not drawn)	0%	.	8%	-1%	-2%	-20%	.	-4%[46.1 µM]
